SRC1 inh: SRC1 coactivator transcriptional activity inhibitors, primary screen, cell-based, luminescence | Nuclear receptor coactivator 1 (Homo sapiens), Q15788 | 0.12% of 360,000 active | inhibition, % at 3.6 µM | HEK293 GAL4-SRC1 luciferase reporter | AID 588354, 2011;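 active = inhibition above the campaign mean plus 3 SD, with each screening campaign given its own cutoff, cut at about 60% in these data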;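 also: 0% = DMSO treated cells and 100% = gossypol at 36 µM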
SRC2 inh: inhibition of GAL4-SRC2 driven luciferase reporter, primary screen, SRC2 inhibitor project, cell-based, luminescence; Nuclear receptor coactivator 2 (Homo sapiens), Q15596; HEK293 GAL4-SRC2 luciferase reporter; inhibition, % at 9 µM; 0.17% of 370,000 active; AID 651957, 2012;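 active = inhibition above the mean inhibition of all tested compounds plus 3 SD, set per campaign, cut at about 52% in these data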;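 also: 0% = DMSO treated cells and 100% = cells given Gossypol at 36 µM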
TLR9-MyD88 inh: inhibitors of TLR9-MyD88 association in cells, primary screen, cell-based, CHO, BLA complementation, fluorescence. 0.21% of 340,000 active. AID 504734, 2011. inhibition, % at 4.98 µM. CCF4 FRET ratio;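 active = inhibition above the mean over all tested compounds plus 3 SD, cut at about 21% in these data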;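 also: 0% = DMSO only wells and 100% = clavulanate BLA inhibitor control wells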
SRC3 inh: SRC3 coactivator transcriptional activity inhibitors, primary screen, cell-based, luminescence | AID 588352, 2011 | 0.17% of 360,000 active | Nuclear receptor coactivator 3 (Homo sapiens), Q9Y6Q9 | HEK293 GAL4-SRC3 luciferase reporter | inhibition, % at 3.6 µM;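 active = inhibition above a per-campaign cutoff, the mean of all compounds plus 3 SD, cut at about 60% in these data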;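 also: 0% = DMSO-treated cells and 100% = gossypol-treated cells at 36 µM; higher means less SRC3-driven luciferase light from the GAL4 reporter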
ABHD5-PLIN5 inh: ABHD5-PLIN5 interaction inhibitors, primary screen, cell lysate, split luciferase complementation, luminescence. AID 602281, 2012. 0.78% of 360,000 active. Split G. princeps luciferase complementation, 4 h. inhibition, % at 4 µM. Perilipin-5 (Homo sapiens) + 1-acylglycerol-3-phosphate O-acyltransferase ABHD5 (Homo …;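 active = inhibition above the mean inhibition across every tested compound plus 3 SD, cut at about 22% in these data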;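 also: 0% = DMSO only wells and the 100% control is not disclosed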
NOD2 RIPK2 PPI: NOD2-RIPK2 binding disruptors in cells, primary screen, fluorescence, CHO cells, BLA complementation | Receptor-interacting serine/threonine-protein kinase 2 (Homo sapiens), O43353 | CCF4 ratio | inhibition, % at 4.98 µM | 0.38% of 360,000 active; in the data active = inhibition above about 21%;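 also: 0% = vehicle only and 100% = reference blocker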
LRH-1 inv ag: LRH-1 (NR5A2) inverse agonists, primary screen, cell-based, luminescence, HEK293T, StAR-luciferase reporter. LRH-1 transfected, 24 h. inhibition, % at 3.6 µM. 0.13% of 360,000 active;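 active = inhibition above the mean inhibition of all tested compounds plus 3 SD, cut at about 73% in these data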;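 also: 0% = DMSO wells and 100% = reporter-only cells lacking LRH-1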
Starred values were filed as active, the others as inactive; nt = not tested or not shown. A portion of the library; the hit share may differ from the screen's.

Results follow in this order: SRC1 inh, SRC2 inh, TLR9-MyD88 inh, SRC3 inh, ABHD5-PLIN5 inh, NOD2 RIPK2 PPI, LRH-1 inv ag
- CCCCCCCCCCCCn1ccc(=N)cc1
  60, -1, -4, 77*, 15, 3, 84*
- Cc1cccc(CN2CCN(Cc3ccc(Cl)cc3)CC2)c1
  -15, -1, -1, 6, -1, -1, 4
- CCCCC(=O)N/N=C/c1c(O)n(CC)c(=S)n(CC)c1=O
  0, 27, 11, 23, 0, 2, 8
- CCC1C2CC3C4N(C)c5ccccc5C45CC(C2C5O)N3[C@@H]1O (stereo partly drawn)
  5, 13, -1, -11, 0, -2, -9
- O=C(COC(=O)c1ccccc1)Nc1ccc(Cl)cc1C(=O)c1ccccc1
  6, 7, -17, 7, 8, -1, -10
- Cc1ccc(-c2cc(-c3ccc(C)cc3)[n+](C)o2)cc1
  49, -6, -7, 54, 3, -5, 66
- COC(=O)C1C2CC[C@@H](CC1OC(=O)c1ccccc1)N2 (stereo partly drawn)
  20, nt, -14, 10, -2, -1, 14
- O=Cc1cn(Cc2ccc(F)cc2Cl)c2ccccc12
  14, 38, -10, 18, -2, -4, 21
- CCC1C2CC3C4N(C)c5ccccc5C45CC(C2C5O)N3C1O (stereo not drawn)
  8, 10, nt, 16, -3, -3, -24

Entries shown so far containing a carbonyl joined to an NH by a bond outside any ring, in the order listed:
Results follow in this order: SRC1 inh, SRC2 inh, TLR9-MyD88 inh, SRC3 inh, ABHD5-PLIN5 inh, NOD2 RIPK2 PPI, LRH-1 inv ag
- CCCCC(=O)N/N=C/c1c(O)n(CC)c(=S)n(CC)c1=O
  0, 27, 11, 23, 0, 2, 8
- O=C(COC(=O)c1ccccc1)Nc1ccc(Cl)cc1C(=O)c1ccccc1
  6, 7, -17, 7, 8, -1, -10

Ordered by heavy-atom count (ascending): part of the list above.
Results follow in this order: SRC1 inh, SRC2 inh, TLR9-MyD88 inh, SRC3 inh, ABHD5-PLIN5 inh, NOD2 RIPK2 PPI, LRH-1 inv ag
- CCCCCCCCCCCCn1ccc(=N)cc1
  60, -1, -4, 77*, 15, 3, 84*
- O=Cc1cn(Cc2ccc(F)cc2Cl)c2ccccc12
  14, 38, -10, 18, -2, -4, 21
- COC(=O)C1C2CC[C@@H](CC1OC(=O)c1ccccc1)N2 (stereo partly drawn)
  20, nt, -14, 10, -2, -1, 14
- Cc1cccc(CN2CCN(Cc3ccc(Cl)cc3)CC2)c1
  -15, -1, -1, 6, -1, -1, 4
- CCC1C2CC3C4N(C)c5ccccc5C45CC(C2C5O)N3[C@@H]1O (stereo partly drawn)
  5, 13, -1, -11, 0, -2, -9
- O=C(COC(=O)c1ccccc1)Nc1ccc(Cl)cc1C(=O)c1ccccc1
  6, 7, -17, 7, 8, -1, -10

Screening results as filed in PubChem.
